High-throughput results as filed in PubChem.
CDC25B-CDK2 inh = human CDC25B-CDK2/CyclinA binding inhibition; AID 1259370; z-score (concentration not given with the values); P30305+P24941; hit rate 0.72% among 94,000; HTRF CDC25B-CDK2/CyclinA binding, anti-His/anti-Flag; stronger effect = higher value;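 note: score is relative to mean and SD of negative controls; strong numbers were not always called active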
HIV TAR-Tat = HIV-1 TAR-Tat binding disruption; hit rate 0.6% among 100,000; AID 1259389; HIV-1 TAR RNA, Tat peptide displacement FRET; stronger effect = higher value; z-score (concentration not given with the values);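 note: score is relative to mean and SD of negative controls; some compounds called inactive have numbers as strong as hits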
* hit, by the source's call; · = no result given.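 Rule for the calls: active = z-score from 3 up in half or more of its runs; inactive = the rest.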

Under each structure: HIV TAR-Tat, CDC25B-CDK2 inh
> O=C(Cn1ncc2c1-c1ccccc1OC2)Nc1ccc(F)c(Cl)c1
  -0.04, -1.2
> COC(=O)c1scc(S(=O)(=O)C(C)C)c1N
  ·, -1.4
> O=C(Nc1ccc(C(F)(F)F)cc1)c1ccc2c(c1)C(=O)N(CC1CCCO1)C2=O (stereo not drawn)
  ·, -0.63
> O=C(NCc1cccnc1)C1CC(c2ccc(F)cc2)=NO1 (stereo not drawn)
  -0.42, -2.3
> COC(=O)c1ccc(N2CC(O)=C(c3nc4ccccc4[nH]3)C2=N)cc1
  1.1, -1.5
> Cc1c(NS(=O)(=O)c2ccc3c(c2)C(C)(C)C(=O)N3C)c(=O)n(-c2ccccc2)n1C
  2, ·
> O=C1c2ccccc2-c2onc3c(N4CCN(c5ccc(F)cc5)CC4)cc(NCCO)c1c23
  2.4, 6.3
> COc1cccc2c1Oc1nc(-c3cc(Cl)ccc3O)[nH]c(=O)c1C2
  1.6, -0.3
> COc1ccc(C(=O)CSc2ncnc3sc4c(c23)CCC4)cc1OC
  ·, -0.34
> CN1CCN(C(=O)C2CCCN(S(=O)(=O)N3CCCCC3)C2)CC1 (stereo not drawn)
  4, ·
> Cn1c(=O)c2c(-c3cccc(Br)c3)n(-c3cccc4cccnc34)cc2n(C)c1=O
  -1.5, -0.41
> O=C(c1cccs1)N1CCN(c2ncc(Br)cn2)CC1
  ·, -0.73
> Cc1ccc(-n2c(C)nc3c(cnn3-c3ccc(F)cc3)c2=O)cc1C
  ·, -2
> Cc1ccc(C)c(N2CCN(C(=O)c3ccc(NC4=NC5CS(=O)(=O)CC5S4)cc3)CC2)c1 (stereo not drawn)
  2.3, ·
> O=C1Cc2cc(S(=O)(=O)NCc3ccc4c(c3)OCO4)cc3c2N1CCC3
  0.79, ·
> Cn1c(C(=O)NCCCN2CCCCC2)cc2sccc21
  0.66, -1.4
> O=S(=O)(Nc1nc2ccccc2nc1Nc1ccc2c(c1)OCCO2)c1ccc(Cl)cc1
  3.1, -2.2
> CCN(CC)CCn1c(C)c(C)c2c1ncn1nc(-c3ccccc3C)nc21
  0.54, -1.3
> Cc1cc(Nc2cc(F)ccc2F)n2nc(-c3ccco3)nc2n1
  0.44, ·
> CCc1ccc(C2C=C(C(=O)O)Nc3nnnn32)cc1 (stereo not drawn)
  0.4, ·
> C=CCN(CC=C)Cc1c(C)[nH]c2ccc(OCC)cc2c1=O
  -0.01, -1.4
> O=C(c1ccc(N2CCSc3ncccc32)s1)N1CCN(c2ccccc2)CC1
  0.61, ·
> Cc1nc(SC(C)C(=O)O)[nH]c(=O)c1Cc1ccccc1 (stereo not drawn)
  2.5, -1.2
> COC(=O)c1nc2c(C)cccn2c1F
  -2, -1.2
> Cc1ccc2cc3c(nc2c1)N(C(=O)c1ccc(F)cc1)CC3
  -1.1, -2
> COC(=O)c1cc(NC(=O)c2cc(C(C)(C)C)nn2Cc2ccc(F)cc2)ccc1N1CCOCC1
  ·, -0.75
> NC(=O)c1c(NC(=O)COCc2cc(-c3cccs3)on2)sc2c1CCCC2
  -0.34, ·
> O=S(=O)(NCCc1csc2nc(-c3ccccc3F)nn12)c1ccc(F)cc1F
  0.9, ·
> CN(C)c1ccc(C(=O)N2N=C(C3CCCCC3)CC2(O)C(F)(F)F)cc1 (stereo not drawn)
  ·, -0.85
> O=C(c1cnn(-c2ccc(F)cc2)c1C1CCNCC1)N1CCN(c2ccc(Cl)cc2)CC1
  0.11, ·

Next part:
Under each structure: HIV TAR-Tat, CDC25B-CDK2 inh
> CCC/C(O)=C(/C=N/c1ccc(C(=O)OC)o1)C(=O)OCC
  ·, -2.3
> CC1CSc2ccc(S(=O)(=O)N(C)CCCc3ccco3)cc2NC1=O (stereo not drawn)
  0.85, ·
> C1=CCC(C2OCC(CN3CCOCC3)O2)CC1 (stereo not drawn)
  ·, 0.34
> CC(=O)Nc1ccc(S(=O)(=O)[C@H]2CS(=O)(=O)C[C@@H]2N2CCN(C(C)=O)CC2)cc1
  -0.52, -1.6
> Cc1c(C(=O)N2CCCCC2)c(S(=O)(=O)NC2CCC(C)CC2)c(C)n1C (stereo not drawn)
  0.72, ·
> CN(c1ccccc1)S(=O)(=O)c1nnc(NC(=O)C2CCCCC2)s1
  2.6, -0.1
> O=C(Cc1ccc(NC2=NC3CS(=O)(=O)CC3S2)cc1)N1CCN(c2ccc(F)cc2)CC1 (stereo not drawn)
  1.2, -1.8
> CN1C(=O)C(O)(CC(=O)c2ccc3c4c(cccc24)CC3)c2ccccc21 (stereo not drawn)
  -0.24, 0.56
> Cc1cc(C)nc(N2CCN(C(=O)CSc3nc4ccccc4nc3N3CCOCC3)CC2)n1
  -1.9, -2.9
> O=C(Cn1ncc2ccccc21)NCC1CCCO1 (stereo not drawn)
  1.4, -0.95
> COc1ccc(Oc2coc3cc(OCC(=O)OCC(C)C)ccc3c2=O)cc1
  ·, -1.5
> CCN1CCN(c2nc(N)c([N+](=O)[O-])c(Nc3ccc(OC)cc3)n2)CC1
  2.4, ·
> CCN(CC)c1nc(NCc2cc(OC)ccc2OC)c2cnn(C)c2n1
  1.4, ·
> COc1ccc(C2CC(=O)C3=C(C2)Nc2nc4ccccc4n2C3c2ccco2)cc1 (stereo not drawn)
  -0.31, -2.4
> Clc1cc(NCc2ccc3c(c2)OCO3)ccc1N1CCOCC1
  0.5, -0.5
> C=CCn1c(SC(C)C(=O)Nc2nc(C)cs2)nnc1-c1cc2cc(Cl)ccc2o1 (stereo not drawn)
  1.8, ·
> c1ccc(-c2n[nH]c3c2cnc2ccccc23)cc1
  3.3, -1.8
> COCCOC(=O)C1=C(C)NC2=C(C(=O)CC(c3cccs3)C2)C1c1cccs1 (stereo not drawn)
  0.82, -1.6
> CCOC(=O)NNC(=O)NCCCc1ccc2ccc3cccc4ccc1c2c34
  ·, 0.13
> Cc1ccc(NC(=O)Cc2nnc(NC(=O)Nc3ccc(Cl)cc3Cl)s2)cc1
  ·, -1.1
> CCOc1cccc2c1Oc1nc(-c3ccccc3)nc(SCC(=O)O)c1C2
  1.1, -0.95
> COc1ccc(NC2OC(=O)c3ccccc32)cc1 (stereo not drawn)
  0.46, 4.2
> Fc1cccc(CN=C2Nc3ccccc3NC23CCNCC3)c1
  -1.7, ·
> Cc1ccc(C(=O)C(O)(O)C(F)(F)F)cc1
  ·, -0.92
> CC(C)CCNC(=O)Nc1ccc2c(c1)N(C)C(=O)c1ccccc1S2
  0.57, -0.34
> OC[C@H]1O[C@@H](n2cnc3c(NCc4ccco4)ncnc32)[C@H](O)[C@@H]1O
  0.4, ·
> CC1CCCCN1C(=O)CC(=O)Nc1ccc2nc3n(c(=O)c2c1)CCCCC3 (stereo not drawn)
  0.68, 1.5
> Cc1ccc(C(=O)OCC(=O)C(C)(C)C)cc1N1C(=O)c2c(C)nc3ccccc3c2C1=O
  -1.2, 0.81
> O=C(CCCc1nc(-c2cccs2)no1)Nc1ccc(F)cc1
  1.6, 0.01
> O=S(=O)(Nc1ccccc1Sc1nc2ccc(Cl)cc2s1)c1ccc2c(c1)CCO2
  ·, -1.8

The list goes on:
Under each structure: HIV TAR-Tat, CDC25B-CDK2 inh
> Cc1ccc(-c2nc(SCc3cc(=O)c4cc(C)ccc4[nH]3)n[nH]2)cc1
  0.8, ·
> Cn1c(O)c(C2=Nc3ccccc3SC(c3ccccc3)C2)c(=O)n(C)c1=O (stereo not drawn)
  0.36, -2
> CCc1cc(Nc2cccc(F)c2)n2ncnc2n1
  -0.04, 1.7
> COC(=O)C1=C(C)NC2=C(C(=O)c3ccccc32)C1c1cc(Cl)c(OC)c(OC)c1 (stereo not drawn)
  0.39, 0.67
> O=S(=O)(N/N=C/c1c(O)ccc2ccccc12)c1ccc(Cl)cc1
  ·, -1.2
> O=C(Nc1ccncc1)c1c(O)c2cccc3c2n(c1=O)CC3
  1.4, -2.2
> O=C(Nc1ccc(Cl)cc1)N1CCc2cc3ccccc3nc21
  1, -1.8
> CC(=O)Nc1ccccc1SCc1cc(=O)n2cc(C)sc2n1
  0.06, ·
> Cc1noc2c1C(O)CC(C)(C)C2 (stereo not drawn)
  ·, -0.96
> CC1(C)CC(=O)C2=C(C1)Nc1nc(SCc3ccccc3Cl)nn1C2c1cccnc1 (stereo not drawn)
  ·, 0.44
> CCN(CC)c1ccc(Nc2cc(C)nc(C)n2)cc1
  0.89, 0.61
> Cc1ccc(-n2cc3c(c2-c2ccc(Br)cc2)c(=O)n(C)c(=O)n3C)cc1
  -0.23, -1.6
> O=C(CCCN1C(=O)c2cccnc2Oc2ccc(Cl)cc21)NCCCN1CCCC1=O
  1.8, ·
> CCOc1ccc(S(=O)(=O)Nc2cccc(Br)c2)c2ccccc12
  1.6, -1.2
> Cc1coc2c(C)c3oc(=O)c4c(c3cc12)CCCC4
  ·, -1.6
> COc1ccc(-c2nnc3c4c(nnn4Cc4ccccc4)c(C(F)(F)F)nn23)cc1
  -0.43, 1.3
> Cc1ccc(-c2nc3c4c(C)c(C)n(Cc5cccnc5)c4ncn3n2)cc1
  0.18, -0.94
> CC12CN3CC(C)(CN(C1)C3(C)c1ccc(O)cc1)C2=O (stereo not drawn)
  ·, -1.1
> Cc1ccc(NS(=O)(=O)c2cc3[nH]c4c(c3cc2C)C(=O)CC(C)(C)C4)cc1F
  0.26, ·
> O=C(CCCCN1CCC(c2ccccc2)C1)c1ccccc1 (stereo not drawn)
  1.8, 0.01
> COCc1ccc2oc(C(=O)O)cc2c1
  0.69, -1
> CC1CC(C)CN(S(=O)(=O)c2ccc3c(c2)oc(=O)n3CC(=O)N2CCCCC2C)C1 (stereo not drawn)
  ·, -2.2
> O=C(CSc1ccc2nnc(-c3ccc(F)cc3)n2n1)NCc1ccc(F)cc1
  ·, -11
> Cc1cc2c(cc1S(=O)(=O)N(CCN1CCOCC1)Cc1ccco1)OCC(=O)N2
  1.3, ·
> O=C(Nc1ccc(F)cc1F)c1c(O)c2ccccc2[nH]c1=O
  0.98, ·
> CCOC(=O)C1=C(C)Nc2nc3ccccc3n2C1c1cccc(F)c1Br (stereo not drawn)
  ·, -3.1
> CC(=O)Nc1ccc(Sc2nc3c(c(=O)n(C)c(=O)n3C)n2C)cc1
  1.3, -2.4
> CC(NC(=O)C(=O)NCCN(C)C)C(c1cccs1)N1CCN(C)CC1 (stereo not drawn)
  0.01, -3.4
> CCCn1nc(-n2cnnc2)c(NC(=O)c2ccc3c(c2)OCO3)c1C
  0.96, -2.4
> Nc1nc2c(nc(Br)n2C2OC3COP(=O)(O)O[C@@H]3C2O)c(=O)[nH]1 (stereo partly drawn)
  ·, -0.5

Two entries from above, with each value named.
Cc1ccc2cc3c(nc2c1)N(C(=O)c1ccc(F)cc1)CC3
  HIV TAR-Tat: -1.1	CDC25B-CDK2 inh: -2

Cc1cc(Nc2cc(F)ccc2F)n2nc(-c3ccco3)nc2n1
  HIV TAR-Tat: 0.44	CDC25B-CDK2 inh: ·

Complete entries from above. Screens in order: HIV TAR-Tat | CDC25B-CDK2 inh
O=C(Nc1ccncc1)c1c(O)c2cccc3c2n(c1=O)CC3 is listed with 1.4 | -2.2
CC(=O)Nc1ccc(Sc2nc3c(c(=O)n(C)c(=O)n3C)n2C)cc1 is listed with 1.3 | -2.4
O=C(CCCCN1CCC(c2ccccc2)C1)c1ccccc1 (stereo not drawn) is listed with 1.8 | 0.01
Cc1coc2c(C)c3oc(=O)c4c(c3cc12)CCCC4 is listed with · | -1.6
Cc1cc2c(cc1S(=O)(=O)N(CCN1CCOCC1)Cc1ccco1)OCC(=O)N2 is listed with 1.3 | ·

(list continues)
Under each structure: HIV TAR-Tat, CDC25B-CDK2 inh
> Cc1ccc(N2CCCS2(=O)=O)cc1NS(=O)(=O)c1ccc2c(c1)OCCO2
  -0.33, ·
> COCCCNC(=O)CCc1nnc2ccc(N3CCCC3)nn12
  -1.4, ·
> CCOc1cc(C2SC(NC(C)=O)=NN2C(C)=O)ccc1OC(=O)c1ccco1 (stereo not drawn)
  2.5, 0.17
> O=C(CS(=O)(=O)c1ccc(Cl)cc1)Nc1nc(-c2cccs2)cs1
  0.9, ·
> Cc1ccc(CN(C(=O)c2cc(-c3cccs3)on2)C2CCS(=O)(=O)C2)cc1 (stereo not drawn)
  1.4, -1
> CCS(=O)(=O)n1nc(-c2ccc(OC)cc2)cc1N
  ·, -0.77
> Cc1cc(NC(=O)NC2(C(F)(F)F)Oc3ccc(Cl)cc3O2)no1 (stereo not drawn)
  ·, -0.67
> O=c1c2ccccc2c2n[nH]c(O)c3ccc(=NC4CCCCC4)c1c32
  0.33, -0.76
> O=C(Nc1cnc2ccccn2c1=O)c1ccc(Cl)cc1
  -1.7, -0.46
> CCOC(=O)C1CCN(c2nc3ccccc3n2C)CC1
  -0.12, -1.2
> C=CCOc1ccc(C2c3c(oc4ccccc4c3=O)C(=O)N2c2nc(C)c(C(=O)OC)s2)cc1 (stereo not drawn)
  -1, -1.8
> CC1C=CCC2C(=O)N(c3cc(Cl)ccc3O)C(=O)C12 (stereo not drawn)
  ·, -1.9
> O=C(NCc1ccc(-c2cccs2)s1)NC(=O)c1cccc(C(F)(F)F)c1
  ·, -2.5
> CCCN1C(=O)C(O)(CC(=O)c2ccccn2)c2cc(Br)ccc21 (stereo not drawn)
  3.7, -1.4
> Cc1ccc(OCc2nc3c4c5c(sc4ncn3n2)C(C)(C)NC(C)(C)C5)cc1
  ·, 0.13
> O=C(O)c1ccc(Cn2nc(N3CCCCC3)ccc2=O)o1
  0.04, -1.8
> O=C(Nc1cc(Cl)ccc1O)c1ccccc1CN1CCOCC1
  ·, -1.7
> Cc1nc2scc(C)n2c(=O)c1S(=O)(=O)N1CCCc2ccccc21
  1.1, -2.3
> C=CCn1c(=S)n(CC=C)c2ccccc21
  ·, -0.58
> O=C(Nc1ccc(N2CCOCC2)cc1Cl)C1CCN(C(=O)OCc2ccccc2)CC1
  ·, -1.6
> CSc1nn(-c2ccccc2)cc1C(=O)Sc1cccs1
  ·, 0.76
> Cc1ccc(-c2cnc(C3CC3)o2)cc1S(=O)(=O)Nc1ccc(F)c(Cl)c1
  1, ·
